# Screens (PubChem BioAssay)
# VDR inh: vitamin D3 receptor (human) inhibition. P11473. VDR-SRC2-3 peptide fluorescence polarization, 2 h. Potency, µM, without a hit: max response, negative = inhibition, usual class: inhibitors. 0.93% of 400,000 active. AID 504847; active = well fitted inhibition curve with a large enough effect; inconclusive = small, poorly fitted or top-dose-only effect, or another doubt; inactive = no such curve, though single readings can be large or run the other way; also: series mostly up to about 120 µM
# Target sequence (P11473 whole entry, looked up): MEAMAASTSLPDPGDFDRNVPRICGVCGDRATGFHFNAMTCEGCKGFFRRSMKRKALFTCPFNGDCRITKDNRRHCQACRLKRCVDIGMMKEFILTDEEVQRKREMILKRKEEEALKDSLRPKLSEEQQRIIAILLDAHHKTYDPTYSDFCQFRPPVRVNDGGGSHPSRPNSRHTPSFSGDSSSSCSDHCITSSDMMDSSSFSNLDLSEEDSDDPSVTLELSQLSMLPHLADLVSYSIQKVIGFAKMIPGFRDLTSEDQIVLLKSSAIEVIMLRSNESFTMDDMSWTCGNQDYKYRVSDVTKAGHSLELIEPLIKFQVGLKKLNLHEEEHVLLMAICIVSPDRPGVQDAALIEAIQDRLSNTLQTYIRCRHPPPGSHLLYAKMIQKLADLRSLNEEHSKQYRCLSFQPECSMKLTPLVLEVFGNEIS
#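 Compounds are added to VDR with labelled SRC2-3 coactivator peptide and held 2 h at room temperature. Inhibition of the VDR–peptide interaction is then read as a change in fluorescence polarization.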
# * hit, by the source's call; u = inconclusive; & = joins results of further samples; [ ] = dose if it differs, or a comment. % is scaled to controls: 0 for no effect and ±100 for the full control effect; potency is read from the fitted curve at half-maximal effect. This is a subset, so the mix of outcomes need not match the whole.
SMILES,VDR inh
COc1ccc(CCNC(=O)c2cc3c(=O)n(C)c4cc(Cl)ccc4c3s2)cc1OC,3.4%
Cn1c(=O)c2c(nc(N3CCOCC3)n2CCNC2=NCCC2)n(C)c1=O,10.6%
Cn1nnnc1Sc1ncnc2scc(-c3cccc4ccccc34)c12,-15.5%
CCCn1nc(Oc2nc(NCC)nc(NCC)n2)ccc1=O,0.9%
CCOc1ccc(NC(=O)CCCc2nc(-c3cccc(OC)c3)no2)cc1,6.9%
CC(C)c1ccc(-c2nc3ccccc3s2)cc1,-0.6%
CCOC(=O)N1CCN(C(=O)c2cc(Cl)c(Cl)cc2C(=O)O)CC1,30.7%[activator]
Cc1cccc(CSc2cn(CC(=O)N3CCCCCC3)c3ccccc23)c1,-3.8%
O=C(NCc1ccc2c(c1)OCO2)C1CCC(=O)N1C1CCCC1 (stereo not drawn),-11.1%
COc1ccc(NC(=O)C(c2ccc(OC)cc2)N(C)C(=O)Cc2cccs2)cc1 (stereo not drawn),-15.9%&-12.0%
CCOc1ccc(CN2CCNC(=O)C2CC(=O)NCC2CCOCC2)cc1 (stereo not drawn),-28.0%
CCCCc1c(C)nc2c(OC)cccc2c1SCC(=O)O,7.3%
CCn1c(SCC(=O)NC(C)(C)C)nnc1-c1ccncc1,9.6%
O=C(COc1ccc(F)cc1)N1CCc2ccccc2C1,-17.6%
COCCN(C(=O)CCC(=O)Nc1ccccn1)C(C(=O)NC(C)C)c1ccc(Cl)cc1 (stereo not drawn),15.6%
COC(=O)CCC(=O)Nc1cccc(C(=O)Nc2cccc(Cl)c2)c1,-3.0%
O=C(NCC1CCCO1)c1cccc(NC(=O)c2ccc(Br)cc2)c1 (stereo not drawn),-1.8%
O=S(=O)(c1ccccc1)c1nc(-c2ccccc2F)oc1N1CCOCC1,-0.5%
COc1ccc(C2(CNC(=O)c3cccs3)CCOCC2)cc1,-9.1%
O=C(c1ccc2c(c1)OCO2)N1CCC2(CC1)Oc1ccc(F)cc1C(=O)C21CC(c2cccnc2)=NO1 (stereo not drawn),4.8%
Cc1c(N)c(C(C)(C)C)cc(C(C)(C)C)c1[N+](=O)[O-],-4.5%
C/[N+]([O-])=C/c1c(OCc2ccccc2)ccc2ccccc12,-11.7%
O=C(CN1CCN(c2ccccn2)CC1)NCc1cccs1,-7.2%
NC(=O)C1(NC(=O)[C@@H]2CC3(CC(c4cccc(NC(=O)[C@@H]5CCC(=O)N5)c4)=NO3)CN2C(=O)Cc2ccc(Cl)cc2)CC1 (stereo partly drawn),-10.2%
COc1ccc(C(=O)C[n+]2ccc3c(c2)nc(-c2ccccc2)n3C)cc1,-5.4%

# Structures listed so far containing an aryl methoxy group, in the order listed:
SMILES,VDR inh
COc1ccc(CCNC(=O)c2cc3c(=O)n(C)c4cc(Cl)ccc4c3s2)cc1OC,3.4%
CCOc1ccc(NC(=O)CCCc2nc(-c3cccc(OC)c3)no2)cc1,6.9%
COc1ccc(NC(=O)C(c2ccc(OC)cc2)N(C)C(=O)Cc2cccs2)cc1 (stereo not drawn),-15.9%&-12.0%
CCCCc1c(C)nc2c(OC)cccc2c1SCC(=O)O,7.3%
COc1ccc(C2(CNC(=O)c3cccs3)CCOCC2)cc1,-9.1%
COc1ccc(C(=O)C[n+]2ccc3c(c2)nc(-c2ccccc2)n3C)cc1,-5.4%

# (cont.)
SMILES,VDR inh
Cc1cccc(C)c1NC(=S)N/N=C/c1ccccc1C(=O)O,-3.0%
O=C(N/N=C/c1cccnc1)c1ccc(Cn2cc([N+](=O)[O-])cn2)o1,-13.4%
CC1CCCCC1NC(=O)Cc1ccc(S(=O)(=O)N2CCOCC2)s1 (stereo not drawn),-9.6%
O=C(CSc1ccccn1)N1CCN(S(=O)(=O)c2ccc(Cl)cc2)CC1,0.1%
COc1cc(S(=O)(=O)Nc2ccc3c(c2)C(=O)N(C)C3=O)ccc1NC(C)=O,-8.6%
COc1cc(-c2noc(-c3ccc(N4CCCCC4)c([N+](=O)[O-])c3)n2)cc(OC)c1OC,1.2%
COc1ccc(-n2cc(-c3ccc(OC(F)F)cc3)[n+]3c2CCCCC3)cc1,3.1%
COc1ccc(-c2nc(N)ncc2Oc2ccccc2Br)c(O)c1,3.1%
Cc1ccc(Cl)cc1N1CCN(S(=O)(=O)c2ccc3c(c2)CC(=O)N3C)CC1,-8.6%&6.5%
COc1cc(C(=O)N(Cc2ccc(N(C)C)cc2)CC2CCCO2)cc(OC)c1OC (stereo not drawn),4.3%
COc1ccc(S(=O)(=O)Nc2c(C)n(C)n(-c3ccccc3)c2=O)c(Cl)c1Cl,-14.8%
COc1cccc(N(C(=O)c2cnccn2)C(C(=O)NC2CCCCC2)c2ccc(Cl)cc2)c1 (stereo not drawn),-1.4%
CC1(C)NC(=O)N(CC(=O)OCC(=O)Nc2cccc(F)c2)C1=O,-11.9%
NC(=O)c1nsc(C(=O)N(c2ccccc2)C(C(=O)NC2CCCC2)c2cccs2)c1N (stereo not drawn),-1.5%
COc1ccccc1NC(=S)N(CCc1ccc(OC)c(OC)c1)Cc1ccccn1,6.0%
COc1ccccc1OCCNC(=O)C1CC(=O)N(c2ccccc2OC)C1 (stereo not drawn),-1.2%
O=C1C2Sc3[nH]c(=O)sc3C(c3ccccc3)C2C(=O)N1c1ccc(Cl)cc1 (stereo not drawn),-20.0%
CCCn1c(SCC(=O)Nc2ccc3c(c2)OCCO3)nnc1-c1ccco1,-9.8%
O=C1CCC/C=C/C[C@@H](CC(=O)N(CCO)Cc2ccccc2)C(=O)NC[C@H](c2ccccc2)O1,-16.8%
O=[N+]([O-])c1cccc(NC(=S)NCCc2ccccc2)c1,2.7%
Cc1cccc(-n2c(=O)c3ccccc3n3c(=S)[nH]nc23)c1C,5.8%
O=C(Oc1ccc(-c2ccccc2)cc1)N1CCOCC1,-14.5%
O=C(NC(=S)Nc1ccc(S(=O)(=O)N2CCCC2)cc1)c1cccs1,-29.0%
Cc1ccc(NC(C)C(=O)N/N=C/c2c[nH]c3ccccc23)cc1 (stereo not drawn),-10.8%
COC(=O)C1=CN(c2cccc(Cl)c2)C=C(C(=O)OC)C1c1cccc(OC)c1,-4.6%

# The list continues.
SMILES,VDR inh
COc1ccc(N(CC(=O)NC2CCCCC2)C(=O)c2snc(C(N)=O)c2N)cc1,12.9%
CC(NC(=O)CNC(=S)N(Cc1ccccc1)Cc1cccnc1)c1ccccc1 (stereo not drawn),4.4%
CN(C1CC(C)(C)NC(C)(C)C1)S(=O)(=O)CC12CCC(CC1=O)C2(C)C (stereo not drawn),10.3%
COc1ccc(C(=O)NCC(C)(C)CNC(=O)c2ccc(OC)cc2)cc1,-2.9%
Cc1cccc(C2=NC(C(F)(F)F)(C(F)(F)F)c3c(n(-c4ccc(F)cc4)c(=O)[nH]c3=O)N2)c1,-3.6%
CCC(NC(=O)C1C2C=CC(C2)C1C(=O)O)c1ccc(C)cc1 (stereo not drawn),0.5%
CC1(C)OC(=O)C(=CNC(=O)c2c(F)cccc2F)C(=O)O1,u
COc1cc(C(=O)OCC(=O)Nc2c(C)n(C)n(-c3ccccc3)c2=O)c([N+](=O)[O-])cc1OC,-20.8%
Cc1nn(C)c(Cl)c1NC(=O)OCc1ccc(F)cc1,-2.9%
Cc1ccccc1CN1CCc2nc(N3CCN(c4ncccn4)CC3)ncc2C1,-2.3%
CCOC(=O)[C@@H]1[C@H]2COc3ccc(Br)cc3[C@@H]2N2C(=O)N(c3ccc(C)cc3)C(=O)[C@@]12C,-4.9%
C/C(CC(=O)Nc1ccccc1F)=N\NC(=O)Cc1ccc(Cl)cc1,-9.4%
CCn1c2ccccc2c2cc(NC(=O)c3ccc(=O)oc3)ccc21,9.2%
Cc1cccc(N2CCN(C(=O)C3CCN(Cc4nc(-c5ccc(Cl)cc5)oc4C)CC3)CC2)c1C,4.9%
Cc1ccc(CCN2CC(C(=O)NCCCOC(C)C)CC2=O)cc1 (stereo not drawn),26.7%
O=C(Nc1ccc(Cl)cc1)C1CCN(c2nc3ccccc3n3cccc23)CC1,4.0%
Cc1cc(C)nc(N(C#N)CCOc2ccc(Cl)cc2)n1,17.8%
Cc1ccccc1NS(=O)(=O)c1ccc(C(=O)N2CCN(S(=O)(=O)c3ccccc3)CC2)cc1,-13.2%
Cc1c(C(=O)NCCCN2CCOCC2)oc2c1C1(CCC2)SCCS1,-0.7%
O=C(CSc1nc2[nH]ncc2c(=O)[nH]1)Nc1ccccc1C(F)(F)F,0.3%
CC(C)[C@H](NC(=O)[C@H](Cc1ccccc1)n1c(=O)[nH]c2ccccc2c1=O)C(=O)N1CCC[C@@H]1C(=O)O,-11.6%
Cc1ccc(CNC(=O)c2ccc3c(c2)N(Cc2cccc(C)c2)C(=O)CS3)cc1,-5.9%
CCN1CCN(c2ccc(S(=O)(=O)N3CCCCC3)cc2NC(=O)c2cccc(C)c2)CC1,0.7%
CCOC(=O)N1CCN(C(=O)C(=O)NN)CC1,-7.2%
COc1cc2nc(SCC(=O)NCCc3ccccc3)n(Cc3ccco3)c(=O)c2cc1OC,-9.3%

# Among those listed so far, these contain a furan ring, fused or not:
SMILES,VDR inh
O=C(N/N=C/c1cccnc1)c1ccc(Cn2cc([N+](=O)[O-])cn2)o1,-13.4%
CCCn1c(SCC(=O)Nc2ccc3c(c2)OCCO3)nnc1-c1ccco1,-9.8%
Cc1c(C(=O)NCCCN2CCOCC2)oc2c1C1(CCC2)SCCS1,-0.7%
COc1cc2nc(SCC(=O)NCCc3ccccc3)n(Cc3ccco3)c(=O)c2cc1OC,-9.3%

# (listing goes on)
SMILES,VDR inh
COc1ccc(-c2nc(CS(=O)CC(=O)NCCCN3CCCC(C)C3)c(C)o2)cc1OC (stereo not drawn),-9.3%
O=C(Cc1ccccc1F)NC1CCCN(Cc2ccc(Cl)cc2)C1 (stereo not drawn),-18.6%
CN1C(=O)c2ccc(C(=O)NCc3ccc4c(c3)OCO4)cc2C1=O,6.4%
CN(c1ccc(C(=O)N2CCN(c3ccccc3F)CC2)cc1)S(=O)(=O)c1ccccc1,-4.1%
CN(C)/C=C(\C#N)C(=O)Nc1ccccc1,-19.4%
COc1cc(C(=O)NCC(c2cccs2)N2CCOCC2)cc(OC)c1OC (stereo not drawn),1.0%
CCOC(=O)N1CCN(C(=O)Cc2ccc(-n3c(=S)[nH]c4ccccc4c3=O)cc2)CC1,-8.4%
CCn1c2ccc(F)cc2c2nc3ccccc3nc21,-3.1%
O=C(Cn1cc(SCc2ccc(F)cc2)c2ccccc21)N1CCCCC1,6.7%
Cc1cccc(NC(=O)C2CCN(C(=O)[C@@H]3Cc4ccccc4CN3)CC2)c1,u
O=C(N/N=C/c1ccco1)Nc1ccccc1,-9.7%
O=C(Cn1ccn(-c2ccc(F)c(F)c2)c(=O)c1=O)NCCc1ccccc1,3.4%&-3.8%
O=C(CNC(=O)c1ccccc1F)NC1=NCCS1,-9.8%
Cc1cc(C)c(S(=O)(=O)c2ccccc2C)c(OCCO)n1,-7.0%
Cc1onc(-c2c(Cl)cccc2Cl)c1C(=O)N1CCN(c2ccccc2F)CC1,3.3%
CSc1ccc(S(=O)(=O)Nc2c(C)cccc2C)cc1,-4.4%
Cc1cccc(NC(=S)Nc2ccc(Cl)c(Cl)c2)c1,-8.3%
CC1CCCN(Cc2c(C(=O)N3CCc4ccccc4C3)nc3ccc(Cl)cn23)C1 (stereo not drawn),1.0%
CCCCc1nnc(NC(=O)CN2C(=O)c3ccccc3C2=O)s1,-15.2%
Cc1cc(=O)[nH]c(Cc2ccc(OC(C)C)cc2)n1,-4.0%
O=C(C1CCC(CNS(=O)(=O)c2cccc3nsnc23)CC1)N1CC=C(c2ccccc2)CC1 (stereo not drawn),4.7%
OCCCN1c2ccccc2Nc2nnc(-c3ccccc3)cc21,12.8%
Cc1ccsc1C1CC(=O)Nc2ccccc2S1 (stereo not drawn),3.7%
O=C(COc1cc(Cl)c(Cl)cc1Cl)Nc1ccncc1,17.0%
COc1ccc(OC)c(/C(C)=N/Nc2ccc(C(=O)O)cc2)c1,14.3%

# (cont.)
SMILES,VDR inh
COC(=O)[C@@H](Cc1c[nH]c2ccccc12)NC(=O)CCC(=O)c1ccc(F)cc1,-13.4%
O=C(NCCCNC(=O)c1cncc(O)c1)c1cncc(O)c1,-5.8%
Cc1ccc(C(=O)OCC(=O)Nc2ccc3c(c2)OCO3)o1,4.1%
CC(C)c1ccccc1NC(=O)c1ccco1,1.6%
Cc1cc(C)n(-c2ccc(C(=O)Nc3ccc(C)c(S(=O)(=O)N(C)C)c3)cc2)n1,7.3%
CCCn1c(/N=C/c2cc(OC)ccc2O)nc2ccccc21,-13.2%
COc1ccc(NC(=O)CN2CCN(C(=O)c3ccco3)CC2)c(OC)c1,-5.5%
CN(C)c1ccc(C(=O)OCC(=O)NCCNC(=O)COC(=O)c2ccc(N(C)C)cc2)cc1,11.9%
O=C(Nc1ccc(Cl)cc1)Nc1nnc(-c2ccncc2)s1,-11.0%
Cc1cc(Cl)ccc1OCC(=O)NNC(=O)c1cccnc1,-5.5%
O=C1NC(C(=O)O)=CC(c2ccc([N+](=O)[O-])cc2)N1 (stereo not drawn),-26.4%
COc1cc(OC)c(C2Oc3nc(SC)nnc3-c3ccccc3N2C(C)=O)cc1OC (stereo not drawn),-18.5%
CCn1nc(C(=O)N2CCc3ccccc3C2)c2ccccc2c1=O,-10.0%
Cc1ccccc1N(CC(=O)NC1CCCCC1)C(=O)c1csnn1,-18.7%
O=C(Nc1ccc(Cl)cc1)NC1CCCCC1Cc1ccco1 (stereo not drawn),-5.3%
CC1(C)CC(=O)C2=C(C1)NC1=C(C(=O)c3ccccc31)C2c1ccc(O)cc1 (stereo not drawn),-18.7%
COc1ccccc1CCN1C(=S)NC(C)(C)CC1(C)O (stereo not drawn),-7.9%
Cn1nc(C(=O)N2CCN(c3ccc(Cl)cc3)CC2)c2c1-c1ccccc1S(=O)(=O)C2,-4.2%&1.9%
Cc1cccc(C(=O)NNC(=O)CN2C(=O)c3ccccc3C2=O)c1,-2.7%
CCn1ncc(C2=NOC(C(=O)N3CCC(C(N)=O)CC3)C2)c1C (stereo not drawn),2.1%
CCOC(=O)Cc1cc(=O)[nH]c(Nc2nc3ccccc3o2)n1,6.2%
